# PrP 5UTR inh = suppresses PrP 5' UTR mRNA reporter expression | cell-based PrP 5' UTR mRNA reporter, plate reader | inhibition, % (test concentration not listed) | actives 0.35% (n = 340,000) | AID 488862;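 active means every replicate at 50% or more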;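 further: 0 = median of the neutral control wells; tested in H4 reporter cells; numbers are from one replicate; inactives centre near -14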
# Autofluor counter = compound fluorescence in toxin protease inhibitor counterscreen; compound autofluorescence counterscreen, microsphere flow cytometry; active compounds read high; fluorescence intensity (concentration not given with the values); actives 3.1% (n = 360,000);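 active means at least 3 SD above the mean of all compounds, about 16000 in these data; inconclusive means too few beads counted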;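 further: 100 nL of 1 mM stock went into each well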
# BJeLR viability = BJeLR cell viability loss | BJeLR (HRASV12) viability, CellTiter-Glo ATP luminescence, 48 h; reference of the scale not given here | inhibition, % (no concentration beside the values) | actives 0.17% (n = 300,000) | AID 1554;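 active means replicate mean above 50%; inconclusive means above 50% but judged a plate artefact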;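 further: 50 nL library stock added to about 25 µL; numbers are from one replicate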
# Sa ugtP lethal = kills S. aureus RN4220 lacking UgtP; actives 0.54% (n = 330,000); growth inhibition, % (concentration not given with the values); S. aureus RN4220 ugtP deletion, OD600 growth, 16 h; some inactives read as strong as hits;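 active means z-score under -3 and OD600 up to 0.15 on both plates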;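 further: plate controls were untreated wells for no effect and antibiotic for full effect; wells of about 80 µL received 100 nL stock; the first replicate is given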
# Mtb hypoxia inh = reduces hypoxia-regulated biosensor signal in M. tuberculosis; M. tuberculosis hypoxia-regulated fluorescent reporter, fluorescence; AID 1159583; actives 0.1% (n = 300,000); fluorescence inhibition, % (test concentration not listed);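 active means 35 to 45% if threefold the growth effect, above 45% if 1.5-fold the growth effect; inactive means the rest, general growth blockers included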;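 further: wells of about 50 µL received 100 nL stock; 0% = vehicle wells and 100% = reference inhibitor wells; whole bacteria with a GFP reporter of the hypoxia response; strong numbers were not always called active; many hits fall short of the cut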
# Sa RN4220 lethal = S. aureus RN4220 growth inhibition; OD600, 16 h; inhibition, % (test concentration not listed); actives 0.33% (n = 330,000); AID 1259311;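 active means z-score of -3 or lower and OD600 up to 0.18 on both plates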;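 further: plate controls were untreated cells for no effect and reference antibiotic for full effect; stock transfer was 100 nL into about 80 µL; one replicate is shown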
# Mtb hypoxia inh growth = recorded beside Mtb hypoxia inh, whose call it bears; growth inhibition, %; measured here: M. tuberculosis growth (absorbance);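 0% = vehicle and 100% = reference antibiotic; read after six days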
# Numbers without * were called inactive; ? = inconclusive; nt = not tested or not shown.
SMILES,PrP 5UTR inh,Autofluor counter,BJeLR viability,Sa ugtP lethal,Mtb hypoxia inh,Mtb hypoxia inh growth,Sa RN4220 lethal
COc1ccc(-c2[nH]nc3c2C(c2ccncc2)C(C#N)=C(N)O3)cc1 (stereo not given),-21,3834,3,-6,-4,5,-5.8
Nc1nnc(-c2cn(-c3ccccc3)nc2-c2ccccc2)o1,-26,10003,11,3,4,0,7.0
Cn1c(N2CCCCC2)cc(=O)n(C)c1=O,-12,3545,3,7,9,1,5.1
CSc1nc(NC(C)(C)C)nc(N2CCOCC2)n1,2,4476,-7,-2,11,8,-3.8
CC(C)(Cc1ccc(O)cc1)NC(=O)CC(=O)N/N=C/c1ccc(Cl)cc1,-44,3401,2,nt,nt,nt,nt
CC(=O)c1cccc(NC(=O)COC(=O)COc2ccccc2C)c1,-3,2384,-6,-4,3,0,-4.4
COc1ccc(CCNC(=O)COc2ccc(S(=O)(=O)N3CCOCC3)cc2C)cc1,-18,4665,4,-2,7,0,0.2
Cc1cc(C(=O)CS(=O)(=O)c2ccccc2)cc(C)c1O,-21,3930,-5,3,7,1,3.1
CCCCC(O)(CCCC)C(=O)NN=C(C)c1ccc(Cl)cc1,nt,nt,nt,-3,-10,4,-3.9
COC(=O)c1c(C)nn(-c2ccccc2)c1N,-35,5490,1,8,8,3,2.2
CC(=O)Nc1ccc(NC(=O)C(C)OC(=O)CSc2ccc(Br)cc2C)cc1 (stereo not given),-7,6625,-2,0,0,-4,4.3
Cc1ccccc1N1C(=O)c2cc(S(N)(=O)=O)c(Cl)cc2NC1C (stereo not given),-32,5284,nt,3,7,6,8.3
CC(C)CC(NC(=O)c1cccs1)c1nnc(SCc2ccc(Cl)c(Cl)c2)n1C (stereo not given),-4,2057,-6,42,1,7,0.3
O=C(O)C[C@H]1c2cc(F)ccc2S(=O)(=O)N1Cc1ccccc1,-14,3026,11,nt,nt,nt,nt
c1ccc(C2=NN(c3ccccc3)CC2)cc1,-86,3685,-2,2,2,-3,6.0
COc1ccc(S(=O)(=O)N2CCN(C(=O)c3cc(C4CC4)nn3-c3ccccc3)CC2)cc1OC,-23,3050,nt,10,3,7,5.0
O=C(COc1ccc2ccccc2c1)NCCn1ccc2ccccc21,-20,5569,-1,-10,3,5,-23
CC(=O)Nc1ccc(NC(=O)C(C)OC(=O)CN(C)S(=O)(=O)c2ccc(Cl)cc2)cc1 (stereo not given),-5,4919,-4,0,nt,nt,1.1
Cn1nc(-c2ccccc2)cc1NC(=O)C1CCCCC1,-37,nt,1,-2,0,9,4.3
O=C(NNC(=S)NC(=O)c1ccccc1[N+](=O)[O-])c1ccccc1O,-20,4955,5,-8,4,-7,32
CCCCCCCCn1c(=O)c(C(=O)OC)c(N)c2ccccc21,nt,3537,-12,-23,16,11,3.0
O=C(c1cc2ncc(Br)cn2n1)N1CCN(C(=O)c2ccco2)CC1,-6,2490,-2,5,nt,nt,-0.8
CC(Oc1ccc(Cl)cc1Cl)C(=O)N/N=C1\CCCc2ccccc21 (stereo not given),-27,11099,-5,nt,nt,nt,nt
CC1CCN(C(=S)SCc2nc(N)nc(Nc3ccccc3)n2)CC1,-8,3755,-8,-7,12,-2,6.1
Cc1cc(C)n2nc(CC(=O)NNC(=O)COc3cccc(C)c3C)nc2n1,-2,5236,2,4,2,6,0.7

# More compounds follow:
SMILES,PrP 5UTR inh,Autofluor counter,BJeLR viability,Sa ugtP lethal,Mtb hypoxia inh,Mtb hypoxia inh growth,Sa RN4220 lethal
COc1ccc(C2Nc3ccccc3C(=O)N2C2CCCCC2)cc1 (stereo not given),-48,4409,6,12,-6,3,3.1
CC1CN(C(C)CO)C(=O)c2cccc(NC(=O)c3ccncc3)c2OC1CN(C)C(=O)NC1CCCCC1 (stereo not given),nt,nt,nt,5,7,-3,3.3
O=C(c1ccco1)N1CCN(C(=O)c2cc(=O)[nH]c3ccccc23)CC1,-21,7891,nt,-1,3,7,-0.3
CCOC(=O)C1CN(S(=O)(=O)c2ccccc2)CCN1S(=O)(=O)c1ccccc1 (stereo not given),-28,10184,-16,8,5,9,2.6
CN(CCC1CCOCC1)C(=O)CC1C(=O)NCCN1CC1CCCCC1 (stereo not given),4,2162,-5,-1,14,6,3.5
CCOP(=O)(OCC)C(Nc1ccc(C)cc1)c1ccco1 (stereo not given),-53,4086,0,11,13,8,5.7
O=C(CN1C(=O)COc2ccccc21)N1CCCc2ccccc21,-3,22767*,-2,7,6,1,3.5
Cc1ccc2[nH]c(=O)c(CN(CC3COCCO3)C(=O)Nc3ccccc3F)cc2c1 (stereo not given),-9,3555,-1,12,4,5,-1.3
Cc1ccc(S(C)(=O)=O)cc1S(=O)(=O)Nc1cccc(Cl)c1,-22,1937,2,-1,-8,0,2.2
Cc1cc(=O)[nH]c(NN=Cc2ccc3c(c2)OCCO3)n1,nt,nt,nt,10,-7,2,0.2
O=C(CN(c1cccc([N+](=O)[O-])c1)S(=O)(=O)c1ccccc1)N1CCCCC1,-13,3577,1,6,12,5,5.0
CC(CC(=O)Nc1cc(C)ccn1)=NNC(=O)c1ccncc1,nt,nt,nt,6,20,1,0.1
c1c(C2CCCCC2)n[nH]c1CN1CCCCC1,-25,3645,1,1,4,7,3.9
O=S(=O)(NCCc1ccccc1)c1ccccc1,-16,3471,3,1,nt,nt,-0.8
O=C(Nc1c(F)cc(F)cc1Br)C1CCCO1 (stereo not given),-10,25313*,-7,11,7,5,4.5
O=C(CNc1ccccc1)NN=Cc1c[nH]c2ccccc12,nt,nt,nt,-3,-2,7,1.1
COCCNC(=O)CCc1c(C)nc2nc(-c3cc(OC)cc(OC)c3)nn2c1C,-2,2399,17,3,3,-2,3.4
CCC(=O)N1c2ccccc2NC2=C(C(=O)CCC2)C1c1cccnc1 (stereo not given),-14,3860,-2,9,nt,nt,-1.8
COc1ccccc1NS(=O)(=O)c1ccc(Cl)c(NC(=S)NC(=O)C2CCCC2)c1,-23,2506,1,-14,6,1,5.9
CN1CCC(N(C)c2nc(-c3ccccc3)nc3ccccc23)CC1,-9,7600,0,8,1,6,0.2
COC(=O)C1=C(C)N=C2SC(C)C(=O)N2C1c1cccs1 (stereo not given),-16,2953,4,-11,nt,nt,-8.9
Cc1ccc(CN2CCN(/N=C/c3ccco3)CC2)c(C)c1,-8,7970,3,nt,nt,nt,nt
COc1cc2sc(C)nc2c2ccccc12,-11,3703,-5,9,2,-4,19
COC(=O)Nc1sc2nc(C)cc(C)c2c1-n1cccc1,-19,6004,0,-12,-3,5,-5.1
O=C(NCCc1c[nH]c2ccccc12)c1ccc(-n2cnnn2)cc1,-4,3826,0,6,nt,nt,-0.2

# Later entries
SMILES,PrP 5UTR inh,Autofluor counter,BJeLR viability,Sa ugtP lethal,Mtb hypoxia inh,Mtb hypoxia inh growth,Sa RN4220 lethal
Cc1c(Br)c([N+](=O)[O-])nn1CCCC(=O)Nc1sc2c(c1C#N)CCC2,-31,2487,1,1,8,4,13
OCCC1CN(Cc2ccccc2-c2ccco2)CCN1Cc1ccsc1 (stereo not given),-29,3509,4,3,3,17,1.6
C/C(=N/NC(=O)CNC(=O)C1COc2ccccc2O1)c1cccc(O)c1 (stereo not given),-18,2632,-3,nt,nt,nt,nt
Cc1cc(SCC(=O)c2cc(C)n(C)c2C)nc2ccccc12,-19,6812,-14,16,7,11,6.1
Cn1c(O)c(C(=NCCc2c[nH]c3ccccc23)c2ccccc2)c(=O)n(C)c1=O,-9,4492,8,7,-1,2,7.4
Cc1cccc(CCNS(=O)(=O)c2cc3c(cc2C)NC(=O)CO3)c1,-26,5221,-1,19,-5,8,19
O=C(O)COc1ccc(C=NNC(=O)C(O)(c2ccccc2)c2ccccc2)cc1,nt,nt,nt,6,-5,2,-0.3
COc1cc(Cn2nnc3ccccc32)ccc1O,-13,3886,-19,8,7,-3,-0.7
CCOC(=O)Nc1ccc2c(c1)N(C(=O)CCN1CCOCC1)c1ccccc1S2=O (stereo not given),-24,5473,-1,2,3,16,5.8
Nc1nc(NC(=O)c2ccco2)nn1-c1ccccc1,-47,6938,-5,9,2,-6,1.5
Cc1ccc(Cl)cc1N1CCN(C(=O)CNC(=O)c2ccc(Br)o2)CC1,-2,3692,nt,-2,-14,9,-3.0
C/C(=N\Nc1ccc2nncn2n1)c1ccco1,-5,6105,-3,nt,nt,nt,nt
NC(=O)Cc1cn(-c2ncc(C(F)(F)F)cc2Cl)c2ccccc12,-7,2628,-4,20,nt,nt,6.3
Cc1ccc(NC(=O)Nc2cccs2)nc1,-63,4052,-2,-6,14,7,1.9
CN(C1CCCCC1)S(=O)(=O)c1ccc(NC(=O)c2ccc(Br)o2)cc1,-13,6043,-6,-13,nt,nt,1.1
Cc1[nH]n(-c2ccccc2)c(=O)c1C=NN1CCOCC1,nt,nt,nt,3,16,2,0.8
CCN(CC)CC#CCC(O)(c1ccccc1)c1ccccc1,9,3980,3,2,12,-1,0.0
CNC(=O)CSc1nnc(NC(=O)C2CC(=O)N(c3ccccc3OC)C2)s1 (stereo not given),-9,5990,-2,-2,-2,-2,1.1
COc1ccc(/C=N/Nc2nnc(Cc3ccc(OC)c(OC)c3)c(=O)[nH]2)cc1OC,8,2320,-3,nt,nt,nt,nt
Nc1nc(SCC(=O)Nc2c(Br)cc([N+](=O)[O-])cc2Br)n[nH]1,-24,2602,-5,12,-7,-3,6.4
CCCCOC(=O)Oc1ccc2c(=O)c(Oc3cc(C)cc(C)c3)coc2c1,-4,1938,1,25,16,18,8.5
COc1cc(C2NC(=O)C(C#N)=C(S)N2c2ccc(C)cc2)ccc1OC(C)C (stereo not given),-27,2968,-6,0,nt,nt,0.4
Cc1ccc(CSCC(=O)NCc2ccc(F)cc2)cc1,-3,4373,2,2,3,6,1.9
CCOc1ccc(N(CC(=O)Nc2cccnc2)S(=O)(=O)c2ccc(C)cc2)cc1,-2,nt,0,6,-1,-4,-3.4
CCn1c(C)nnc1SCC(=O)NC1CCCCCC1,-23,5647,-7,8,0,-3,3.3

# Pulled by compound from the entries so far, four records:
SMILES,PrP 5UTR inh,Autofluor counter,BJeLR viability,Sa ugtP lethal,Mtb hypoxia inh,Mtb hypoxia inh growth,Sa RN4220 lethal
COC(=O)c1c(C)nn(-c2ccccc2)c1N,-35,5490,1,8,8,3,2.2
O=C(c1cc2ncc(Br)cn2n1)N1CCN(C(=O)c2ccco2)CC1,-6,2490,-2,5,nt,nt,-0.8
CN(C1CCCCC1)S(=O)(=O)c1ccc(NC(=O)c2ccc(Br)o2)cc1,-13,6043,-6,-13,nt,nt,1.1
Cc1c(Br)c([N+](=O)[O-])nn1CCCC(=O)Nc1sc2c(c1C#N)CCC2,-31,2487,1,1,8,4,13

# Later entries
SMILES,PrP 5UTR inh,Autofluor counter,BJeLR viability,Sa ugtP lethal,Mtb hypoxia inh,Mtb hypoxia inh growth,Sa RN4220 lethal
CCN(CC(=O)c1c(N)n(C)c(=O)n(C)c1=O)c1cccc2ccccc12,-27,2559,4,-7,6,0,4.3
S=C(NCc1ccc(Cl)cc1)Nc1ccncc1,-13,4230,-4,-2,-3,5,-4.2
O=C1CCC(/C=C/c2ccccc2)=NN1,-5,2562,-14,nt,nt,nt,nt
O=C(N/N=C/c1ccccn1)c1ccc([N+](=O)[O-])cc1Cl,-42,4516,10,nt,nt,nt,nt
Cc1ccc(NC(=O)CNC(=O)CC23CC4CC(CC(C4)C2)C3)c(O)c1,-17,5757,-1,0,-3,4,-0.2
CC(C)OC(=O)c1ccc(NC(=O)c2cncc(Br)c2)cc1,-16,2362,-2,nt,nt,nt,nt
CN1CCN(c2ccc(NC(=O)c3cc(Cl)c4c(c3)OCCO4)cc2)CC1,-14,?,nt,4,16,6,-0.3
Cc1cc(Cl)ccc1OCC(=O)N(Cc1cccs1)C1CCS(=O)(=O)C1 (stereo not given),-6,4648,2,4,-4,0,4.3
COCCN=c1scc(-c2cccs2)n1/N=C(\C)c1ccco1,-37,3403,4,nt,nt,nt,nt
N#Cc1c(N)nc(Sc2ccc(Cl)cc2)c(C#N)c1-c1ccccc1Cl,-13,4358,5,59,15,10,6.8
CCCCCOC(=O)CSc1nnc(-c2ccccc2)c(=O)[nH]1,-13,5850,-10,-1,8,9,14
O=C(NCCc1ccccn1)c1cc(-c2ccc(Cl)c(Cl)c2Cl)nc2ccccc12,-9,2082,3,-1,-3,6,4.0
CN(C)CCn1c(SCc2ccccc2C#N)nc2c(sc3ccccc32)c1=O,-12,4360,4,-5,4,10,-0.9
Cc1ccc(S(=O)(=O)N(C)c2ccc(OCC(=O)Nc3nnc(C4CC4)s3)cc2)cc1,-14,4186,-3,6,7,9,8.3
COC(=O)C1CCN(C(=O)CSc2nnc(-c3ccccc3)o2)CC1,-39,5763,-7,0,7,-4,-0.3

# High-throughput results (PubChem)
